Screening data as filed in PubChem BioAssay.
eIF4H FP inh: inhibitors of RNA binding by human eIF4H; Q15056; eIF4H fluorescence polarization binding assay; hit rate 0.94% among 290,000; inhibition, % at 35 µM;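 active = 50% or more with normal probe brightness, or confirmed in later tests; inconclusive = above 50% with abnormal brightness, or retests that disagree; inactive = below 50% or failed in later tests; about a fifth of its hits are not listed in these tables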;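 also: calls also rest on retests at 20 µM and on dose response follow-up; 0% = protein and probe with vehicle and 100% = probe without protein; strong numbers were not always called active; many hits fall short of the cut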
Yeast UUG start: yeast start codon fidelity modulation; S. cerevisiae UUG-firefly luciferase reporter, luminescence/redox ratio; activity score, % at 18.7 µM; hit rate 0.13% among 350,000; AID 602363;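 active = replicate mean at a twofold rise or more, about +100% in these data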;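 also: firefly luciferase made from a UUG start codon reports start codon fidelity; reporter light over untreated wells divided by growth signal over untreated wells; some hits fall short of that in this replicate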
MT1-MMP act inh: blocks activation of human MT1-MMP; HT1080 RFP-PRO-GFP cells, GFP/RFP ratio fluorescence, overnight; percent of plate control window, DMSO zero; GFP/RFP ratio change, % at 20 µM; hit rate 0.061% among 360,000;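 active = GFP/RFP ratio change of at least 30% with cell ATP level not reduced by more than half and red fluorescence within 50% of control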; also: strong numbers were not always called active
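Test system: HT1080 RFP-PRO-GFP cells; Benchmarks: DMSO and RFP-L50D-GFP cell wells; Timing: cells overnight before dosing, compound overnight, 37 °C, 5% CO2; Compound: one 20 µM compound dose with 1% DMSO; Read-out: GFP/RFP fluorescence ratio.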
HIV Env fusion: HIV envelope-mediated fusion inhibition. HeLa-JRFL Env/CEM21 cell fusion, luciferase. inhibition, % at 12.3 µM. hit rate 1.1% among 360,000. AID 651610;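 active = mean replicate inhibition score of at least 50 and every replicate individually at or above 50; inconclusive = only one of the two criteria met; inactive = mean below 50 and not all replicates reaching 50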;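 also: 0% = plate neutral controls and 100% = maraviroc near 300 nM; one replicate is shown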
PABP polyA inh: blocks human PABP binding to poly(A) RNA; P11940; fluorescence polarization; inhibition, % at 35 µM; hit rate 1% among 290,000; AID 2014;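 active = 50% or more with normal probe brightness, or confirmed in later tests; inconclusive = above 50% with abnormal brightness, or retests that disagree; inactive = below 50% or failed in later tests; about a fifth of its hits are not listed in these tables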;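 also: calls also rest on retests at 20 µM and on dose response follow-up; controls were probe without protein and protein plus probe with vehicle; some compounds called inactive have numbers as strong as hits; many hits fall short of the cut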
CSC inhib: cancer stem cell inhibition; cancer stem cell-like cells viability, luminescence; inhibition, % at 7.5 µM; hit rate 1.1% among 300,000;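 active = mean at 75% or more and at least half the replicates too; inconclusive = mean and replicates disagree; tested in HMLE shEcad cells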;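 also: 0% = median of negative and 100% = median of positive control wells; the first replicate is given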
Rce1 inhib: yeast Ras-converting enzyme inhibition. AID 2563. calls only. yeast membranes, quenched prenylated peptide cleavage fluorescence. Q03530. hit rate 0.27% among 290,000;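 active = fall in fluorescence gain of 50% or more versus controls, with final raw signal at or below 3038400; inconclusive = same 50% fall but final raw signal above 3038400; inactive = fall in fluorescence gain under 50%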;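 also: plate controls were neutral control wells for no effect and wells lacking membranes for full effect; tested at 10 µM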
Target sequence (Q03530 whole entry, looked up): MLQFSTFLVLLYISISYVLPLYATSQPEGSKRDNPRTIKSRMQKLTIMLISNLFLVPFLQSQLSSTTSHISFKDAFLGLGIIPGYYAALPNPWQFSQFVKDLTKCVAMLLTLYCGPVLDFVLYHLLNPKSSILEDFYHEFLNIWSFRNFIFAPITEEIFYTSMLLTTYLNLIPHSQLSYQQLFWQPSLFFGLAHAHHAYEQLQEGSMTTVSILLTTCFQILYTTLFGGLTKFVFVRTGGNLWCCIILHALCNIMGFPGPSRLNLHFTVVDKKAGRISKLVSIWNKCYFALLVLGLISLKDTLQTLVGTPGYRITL
eIF4H FP inh retest: second read-out of eIF4H FP inh, no call of its own (marks repeat the call); inhibition, %; compound at 20 µM; confirmation average;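 mean of two retest wells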
PABP polyA inh retest: also measured in PABP polyA inh; calls as there; inhibition, %; compound at 20 µM; confirmation repeats;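 mean of two retest wells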
MT1-MMP act inh RFP: second read-out of MT1-MMP act inh, no call of its own (marks repeat the call); RFP signal change, %; measured here: RFP expression control read;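 0 = vehicle wells; hits needed this value within 50% of zero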
Active calls of the source: *; i = inactive; ? = inconclusive; nt = not tested or not shown; & = joins results of further samples; [ ] = remark or other dose.

SMILES	eIF4H FP inh	Yeast UUG start	MT1-MMP act inh	MT1-MMP act inh RFP	HIV Env fusion	PABP polyA inh	CSC inhib	Rce1 inhib	others
CCC(CC)NC(=O)COC(=O)c1ccc(NS(=O)(=O)c2ccc3c(c2)OCCO3)cc1	11	-5	5	4	-29	-5	5	i
CCCC(C)C(=O)Nc1ccc2c(c1)OCCO2 (configuration not stated)	0	-30	3	7	nt	-8	-6	i
O=C(O)c1ccc(-n2nc(C(F)(F)F)c3c2CCCC3)cc1	7&-7	-3	-2&-3	1&2	-4&-10	0&4	-13&-1	i
Cc1ccc(S(=O)(=O)N(C)CC(=O)NC2CC(C)(C)NC(C)(C)C2)cc1	-12	-13	-8	-8	-9	-4	-2	i
COc1ccc(OCC(=O)Nn2c(-c3ccc(C)cc3)nc3ccccc3c2=O)cc1	-12	nt	0	2	nt	7	-7	i
Fc1ccccc1-c1nc(-c2ccc(Cl)cc2)no1	nt	-13	-8	-1	-165	nt	-16	i
CCNc1nc(NCC)n2c(SCC(=O)Nc3ccc(C)cc3Br)nnc2n1	nt	-14	4	0	-9	nt	-22	nt
Nc1nonc1-n1nnc(C(=O)N/N=C/c2ccc(OCc3cccc(Cl)c3)cc2)c1CN1CCCCC1	-16	nt	0	-6	-16	-4	-7	i
O=C1CN(S(=O)(=O)c2ccc(Cl)cc2)c2ccccc2N1	-2	-10	-2	2	-5	3	-17	i
CCNc1ccc(S(=O)(=O)N(C)C)cc1NCC(=O)Nc1ccc(Br)cc1F	6	-29	-5	-6	7	1	-6	i
C=COCCNC(=S)N1CCOCCOCCN(C(=S)NCCOC=C)CCOCC1	-4	nt	5	6	20	-6	6	i
CC(O)CNc1ncnc2cc(-c3ccc(F)cc3)sc12 (configuration not stated)	3	-8	-3	-2	10	9	15	i
CCOC(=O)CNC(=O)N1CCCC(C(=O)c2ccc3c(c2)OCO3)C1 (configuration not stated)	2	nt	1	7	-1	0	-2	i
O=C1CN(C(=O)c2ccc(F)c(S(=O)(=O)N3CCOCC3)c2)c2ccccc2N1	11	nt	-1	5	9	2	-10	i
CC(=O)c1cccc(-n2nnnc2SCC(=O)N2CCCC2)c1	1	-11	12	3	nt	-4	1	i
COc1cc(C(N)=O)cc(Br)c1OCc1ccccc1	5	nt	7	-1	-27	-3	21	i
c1ccc(Cn2ncc3c(Nc4ccccc4)ncnc32)cc1	2	-5	3	-4	24	5	8	i
COc1ccc(/C=C/C(=O)N2CCN(S(=O)(=O)c3ccccc3)CC2)cc1OC	-5	nt	3	3	7	23	-1	i
CN(Cc1ccc(Cl)c(Cl)c1)C(=O)c1[nH]c(C(F)(F)F)nc1-c1ccccc1	nt	0	-1	1	-7	nt	nt	nt
Cn1c(C(=O)N[C@@H](Cc2ccccc2)C(=O)O)cc2cc(F)ccc21	0	-7	1	1	15	-10	-14	i
CCc1cc(=O)oc2cc(C)cc(OCC(=O)NCCN3CCOCC3)c12	-2	-34	0	1	9	-4	-31	i
COc1ccc(S(=O)(=O)NCc2cccnc2)c(Cl)c1Cl	nt	-19	1	4	-33	nt	nt	nt
O=C(OCc1cccc([N+](=O)[O-])c1)c1ccc2ccccc2n1	1	-1	-7	-1	-5	-6	-7	i
O=C(NCc1cccnc1)c1cc(Sc2cccc(Cl)c2)nc2ccccc12	1	nt	-3	-7	nt	4	7	i
CCN(CC)S(=O)(=O)c1ccc(NC(=O)CC(NC(C)=O)c2ccccc2)cc1 (configuration not stated)	2	2	-10	-1	11	-2	0	i
O=C(c1ccccc1NS(=O)(=O)c1cccs1)N1CCOCC1	1	3	-4	4	-37	-7	4	nt
Cc1c(OCc2ccc(C(=O)O)o2)ccc2c3c(c(=O)oc12)CCC3	2	-14	-5	2	nt	6	0	i
CC1(C)CC(=O)c2c(O)cc(OCc3ccc([N+](=O)[O-])cc3)cc2O1	-2	-10	0	-4	-46	9	7	i
COC1=CC(=O)C(OC)=C(OC)C1=O	nt	-16	1	5	-13	nt	nt	nt
COc1ccc(-n2ccnc2SCC(=O)NCc2ccccc2)c(OC)c1	-14	-18	-5	-1	-5	-2	-6	i
COc1ccc(CCNC(=O)C2CCN(C(=O)c3ccc(Br)cc3)CC2)cc1	0	-13	-2	-1	-82	-8	2	i
COc1ccc(C(=O)N2CCN(S(=O)(=O)c3ccc(C)cc3C)CC2)cc1OC	-7	23	3	-5	4	-13	-3	i
O=C1OC(N2C(=O)CC[C@H]2C(=O)Nc2cccc(F)c2)c2ccccc21 (some centres not stated)	-9	-26	0	4	nt	6	-4	i
CS(=O)(=O)c1ccc2nc(NC3(C(F)(F)F)N=C4SCCN4C3=O)sc2c1 (configuration not stated)	-12	-11	0	3	-6	-4	-4	i
CCOc1ccc(CNC(=O)CCc2cn(C)c3ccccc23)cc1OC	10	-11	5	4	7	-2	5	i
COC(=O)c1[nH]c(C)c(/C(O)=C2\C(=O)C(=O)N(CCN3CCOCC3)C2c2ccco2)c1C (configuration not stated)	1	-5	1	1	-6	12	1	i
Cn1c(NCCCN2CCOCC2)nc2c1c(=O)n(Cc1ccc(Cl)cc1)c(=O)n2C	12	0	-1	-2	-4	1	-6	i
CN(C)S(=O)(=O)c1ccc(Cl)c(NC(=O)CSc2nc3ccccc3c(=O)n2CCCN2CCOCC2)c1	6	0	-7	-4	nt	-2	-2	i
CC(C)(C)C(=O)Nc1ccc(-c2cc3cc(Cl)ccc3o2)cc1	8	nt	2	1	-47	6	-11	i
COc1ccc(NC(=O)c2ccc(NC(=O)CSc3nccc(=O)[nH]3)cc2)cc1	20	-19	0	4	-10	11	-5	i
COc1cccc(CN2CCCC(CNC(=O)c3ccc(F)cc3)C2)c1OC (configuration not stated)	10	nt	0	3	-8	-4	15	i
CC(C)=CCC/C(C)=C/CC/C(C)=C/CC/C(C)=C/CC1=C(C)C(=O)c2ccccc2C1=O	-9	-7	-8	-17	11	1	nt	i
CC1(C)CC(CC(=O)O)(c2ccc(Cl)cc2)CCO1 (configuration not stated)	-5	-22	-1	-2	nt	-4	3	i
Cc1ccc(-n2ncc3c(=O)n(CC(=O)N4CCN(c5ccccc5F)CC4)cnc32)cc1C	3	0	-2	0	nt	74	-12	i	eIF4H FP inh retest=-12;PABP polyA inh retest=2
O=C(NCc1cccc(Cl)c1)NC(=O)c1csc([N+](=O)[O-])c1	4	nt	4	2	-3	13	-14	i
Cc1noc(NS(=O)(=O)c2ccc(N/C=C\C(=O)c3ccncc3)cc2)c1C	1	-16	-1	1	3	5	6	i
Cn1c(CN2CCN(S(C)(=O)=O)CC2)nc2cc([N+](=O)[O-])ccc21	7	-16	-1	3	-10	2	-6	i
Cn1c(C(=O)N2CCOCC2)cnc1Sc1ncc(C(F)(F)F)cc1Cl	2	-22	2	3	nt	-8	-15	i
Fc1ccc(NC(=S)Nc2cccnc2)c(F)c1F	-4	nt	2	2	5	-9	-7	i
CS(=O)(=O)N(CC(=O)Nc1ccc2c(c1)OCO2)c1ccc2c(c1)OCO2	-3	1	3	0	-12	10	-6	i
C[C@H](CO)N1C[C@H](C)[C@@H](CN(C)C(=O)CC2CC2)Oc2cc(Br)ccc2S1(=O)=O	nt	7&-1&11	-3	2	-24	nt	nt	nt
O=C(O)CCc1nn2c3ccccc3nc2n(Cc2ccccc2)c1=O	4	nt	3	2	6	3	-13	i
COCCCNc1c2c3c(cccc3[nH]c1=O)C(=O)c1ccccc1-2	32	-48	-61	9	-12	29	53	nt
COc1ccc(/C=N/NC(=S)NCc2ccccc2)cc1OC	-2	nt	1	2	20	-3	4	i
O=C(OC1CCN(c2ncc(C(F)(F)F)cc2Cl)CC1)c1cccc(C(F)(F)F)c1	-14	-21	0	3	3	-2	-14	i
Cc1ccc(C)c(S(=O)(=O)N2CCN(CC(=O)Nc3ccc4c(c3)CCC4)CC2)c1	-6	5	-3	-8	18	-13	9	i
Cc1ccc(SCCN2CCN(Cc3ccccc3)CC2)cc1	17	-10	3	0	2	13	43	i
CCn1cc(C(=O)NCCC(=O)NC(C)C)c(=O)c2cc3c(cc21)OCO3	5	-11	2	2	5	5	-8	i
Fc1ccccc1NC(=S)N1CCN(c2ccccn2)CC1	-13	-2	4	3	-3	-2	-8	i
Nc1ccc(NC(=O)Nc2ccc(N)cc2)cc1	-8	-17	3	4	-11	2	0	i

(next part)
SMILES	eIF4H FP inh	Yeast UUG start	MT1-MMP act inh	MT1-MMP act inh RFP	HIV Env fusion	PABP polyA inh	CSC inhib	Rce1 inhib	others
CCOC(=O)C1=C(CSc2nc3ccccc3s2)NC(=O)NC1c1ccc(OC)cc1 (configuration not stated)	4	nt	-12	-16	73*	10	?	nt
Cc1cc(OC(C)C(=O)N2CCN(c3ccccc3)CC2)c2c(C)c(C)c(=O)oc2c1 (configuration not stated)	6	-8	8	-3	0	-5	-20	i
CCC1CCCCN1C(=O)CSc1nnc(-c2ccc(OC)cc2)o1 (configuration not stated)	-9	3	-4	-7	30	-16	nt	i
CCO[C@@H]1OC(C(=O)N2CCOCC2)=C[C@H](C2CCCCC2)[C@H]1CCCO	-1	-3	0	3	-2	6	-6	i
CCn1c(C)c(C2=CCN(S(=O)(=O)c3ccc(C)cc3)CC2)c2ccccc21	?	-15	31*	37*	-8	-1	9	i
CCN(CC)Cc1c(C)[nH]c2ccc(NC(C)=O)cc2c1=O	nt	-18	2	4	-23	nt	nt	nt
CC(=O)c1ccc(Oc2ncnc3sccc23)c(CN2CCOCC2)c1	-9	-16	1	5	-3	1	0	i
Cc1ccccc1Nc1nc(CSc2nnnn2-c2ccccc2)cs1	7	-5	0	8	nt	5	0	i
COCCNS(=O)(=O)c1ccc2c(c1)oc(=O)c1cc(S(=O)(=O)NCCOC)ccc12	-1	nt	nt	nt	nt	88*	-5	i	eIF4H FP inh retest=44;PABP polyA inh retest=77*
C[C@H](CO)N1C[C@H](C)[C@@H](CN(C)S(C)(=O)=O)Oc2ccc(NC(=O)C3CCCCC3)cc2C1=O	nt	-1&10	nt	nt	11[16.7 µM]	nt	-16	nt
Fc1ccc(F)c(CN2CCN(c3ncccn3)CC2)c1	-4	7	6	3	nt	21	-3	i
COc1ccc2[nH]c3c(c2c1)CCN1C(=O)N([C@@H](C)C(=O)NCc2ccccc2)C(=O)[C@]31C	-2	-11	1	0	nt	-6	-16	i
COc1ccc(S(N)(=O)=O)cc1C(=O)NCC(C)(C)N1CCCCC1	4	-23	3	4	6	-3	6	nt
CC(=O)c1ccc(N2CCN(CC3CCCCC3)CC2)cc1	-2	-19	5	5	1	-2	28	i
O=C(C1CC1)N(CCN(Cc1ccccc1)C(=O)C1CC1)Cc1ccccc1	2	1	2	1	nt	3	-9	i
O=C(COC(=O)CNC(=O)C1CCCCC1)Nc1cc(C(F)(F)F)ccc1Cl	nt	-8	3	2	-4	nt	8	nt
Cc1cc(NCc2ccccc2)nc(N2CCOCC2)n1	1	1	1	2	nt	11	-1	i
COc1cccc(N2CCN(C(=O)C3CCCN(c4ncnc5c4nc4n5CCCCC4)C3)CC2)c1 (configuration not stated)	-12	0	4	-5	21	0	38	i
COc1ccc(C(=O)NCC(c2ccco2)N2CCOCC2)cc1OC (configuration not stated)	nt	-5	nt	nt	-24	nt	-11	i
Cc1nn(Cc2ccccc2)c(C)c1NC(=O)c1cccs1	2	-2	-3	5	4	-1	-14	i
